# VACV Venus inh = vaccinia inhibition (Venus reporter); Vaccinia virus Venus reporter expression, fluorescence; Potency, µM (doses to about 36.5 µM), without a hit: top-dose activity change, negative = inhibition, most hits filed as inhibitors; actives 0.46% (n = 330,000); AID 720580; active means well fitted inhibition curve with a large enough effect; inconclusive means small, poorly fitted or top-dose-only effect; inactive means no such curve, though single readings can be large or run the other way; tested in A549 cells; further: nearly all actives have a fitted effect of over 30% in size; inactives centre near -10
# VACV mCherry inh = inhibitors of vaccinia virus infection (mCherry reporter signal) | Vaccinia virus mCherry reporter infection, fluorescence; about a quarter of the inactives have no number | Potency, µM (titrated, usually from 36.5 µM), without a hit: at the highest dose activity change, negative = inhibition, usual class: inhibitors | actives 0.63% (n = 310,000); active = well fitted inhibition curve with a large enough effect; inconclusive = small, poorly fitted or top-dose-only effect; inactive = no such curve, though single readings can be large or run the other way; tested in A549 cells; further: nearly all actives have a fitted effect of over 35% in size; inactives centre near -10
# Starred values were filed as active, the others as inactive; i = inactive; u = inconclusive; x = no result given; & = joins results of further samples; [ ] = another dose, or the depositor's remark. On the % scale 0 is the no-effect control and ±100 the full control effect; potency means the concentration at half of the fitted maximal effect. Compounds as they come, and some 0.82% of all compounds hit somewhere here.
SMILES,VACV Venus inh,VACV mCherry inh
O=C1OCCN1C(=O)[C@H]1[C@H](c2ccc(Cl)cc2)C(c2cccc(Cl)c2)=NN1c1ccc(Br)cc1,-27.8%,i
Cc1cccc(NC(=O)c2nc[nH]c2C(=O)Nc2ccccc2F)c1,u,u
COc1ccc(CCNC(=O)C2CCN(S(=O)(=O)c3c(C)noc3C)CC2)cc1OC,-15.1%,-11.7%
COc1ccc(Cn2nc(-c3ccccc3)c(N3CCCCC3)cc2=O)cc1,u,i
CN1CCN(CCNC(=O)c2cn(Cc3ccccc3F)nn2)CC1,-7.6%,-23.0%
C[C@H](CO)N1C[C@H](C)[C@@H](CN(C)C(=O)Nc2ccccc2)Oc2c(NC(=O)Nc3ccc(C(F)(F)F)cc3)cccc2C1=O,u,-20.2%
CC1(C)CC(=O)C2=C(C1)NC(Nc1nc3ccccc3o1)=NC2c1cccnc1 (stereo not drawn),-13.7%,-7.4%
Cc1cc(NC(=O)CCC(=O)N(CC(=O)NC2CCCC2)Cc2ccc(F)cc2)no1,-16.8%,-0.9%
O=C(COc1ccccc1F)Nc1c2c(nn1-c1ccccc1)CS(=O)(=O)C2,-15.8%,-12.5%
O=[N+]([O-])c1ccc(NC(c2ccccc2)c2ccc3cccnc3c2O)cc1 (stereo not drawn),u,u
C=CCn1c(-c2ccccc2)nc2nc3ccccc3nc21,-13.3%,x
COc1ccc(C(=O)CN2C(=O)c3ccccc3S2(=O)=O)cc1Br,3.6%,-9.1%
COc1cccc(C(=O)Nc2cc(C(=O)NCc3ccc(C)cc3)ccc2N2CCC3(CC2)CC(c2cccc(Br)c2)=NO3)c1,-18.2%,i
O=C(NC1CCSc2ccccc21)c1cc(S(=O)(=O)N2CCOCC2)ccc1F (stereo not drawn),-12.6%,-0.8%
O=C(CSc1nc(-c2ccc(F)cc2)cs1)NC(=O)NCc1ccco1,-2.6%,i

# Continued, starting with the last 6 of the part before.
SMILES,VACV Venus inh,VACV mCherry inh
O=[N+]([O-])c1ccc(NC(c2ccccc2)c2ccc3cccnc3c2O)cc1 (stereo not drawn),u,u
C=CCn1c(-c2ccccc2)nc2nc3ccccc3nc21,-13.3%,x
COc1ccc(C(=O)CN2C(=O)c3ccccc3S2(=O)=O)cc1Br,3.6%,-9.1%
COc1cccc(C(=O)Nc2cc(C(=O)NCc3ccc(C)cc3)ccc2N2CCC3(CC2)CC(c2cccc(Br)c2)=NO3)c1,-18.2%,i
O=C(NC1CCSc2ccccc21)c1cc(S(=O)(=O)N2CCOCC2)ccc1F (stereo not drawn),-12.6%,-0.8%
O=C(CSc1nc(-c2ccc(F)cc2)cs1)NC(=O)NCc1ccco1,-2.6%,i
Cc1ccccc1S(=O)(=O)NC1OC(=O)C(Cl)=C1Cl (stereo not drawn),-11.6%,-8.6%
Cc1nc([N+](=O)[O-])c(NCCO)n1Cc1ccccc1,-10.4%,i
COc1ccc(NC(=O)c2ccc(COc3ccccc3OC)o2)cc1OC,-8.6%&-16.7%,-5.0%&-23.4%
COc1cc(NC(=S)N2CCCC(C)C2)c(OC)cc1Cl (stereo not drawn),3.9%,-6.2%
CC(C)CSc1nnc(N)s1,-12.9%,-14.3%
CC(=O)Nc1c(NCC(C)C)c2ccccc2oc1=O,-4.7%,-20.5%
COc1ccc(N(CC(=O)NCc2ccco2)S(C)(=O)=O)c(OC)c1,-8.6%,-1.5%
CCNC(=O)C1(C)CCN(Cc2cccc(C(F)(F)F)c2)C1 (stereo not drawn),11.4%,16.6%
CCOC(=O)C1CCN(CC(C)(C)NS(=O)(=O)c2ccccc2)CC1,-5.2%,1.2%
O=C(NCCCCCNC(=O)c1ccccn1)c1ccccn1,-4.9%,-3.2%
COc1ccccc1NC(=O)COC(=O)c1c(NC(C)=O)sc(C)c1C,-19.3%,-20.7%
C/C(=C\COc1ccc2ccc(=O)oc2c1)CC[C@@H](O)C(C)(C)O,-0.6%,i
COC(=O)CSc1ccc2nnc(-c3ccc(OC)c(OC)c3)n2n1,-5.9%,-16.4%
COc1ccc2oc(=N)c(C(=O)Nc3cccc(C)c3C)cc2c1,-12.1%,-1.0%
CN(CC(=O)Nc1ccc(Cl)cc1)CC(=O)Nc1ccc(F)c(F)c1F,-16.8%,-21.1%
Cc1cccc(N2CCN(C(=O)C3CCCCC3)CC2)c1C,-17.1%,i
COc1cccc(Nc2nc(C(N)Cc3ccc(C(F)(F)F)cc3)cs2)n1 (stereo not drawn),-29.4%,u
CCc1ccccc1NC(=O)Cn1nc2c3cc(F)ccc3n(Cc3cccc(C)c3)cc-2c1=O,-6.8%,-2.1%
OC(COCc1ccco1)CN1CCN(c2ccccc2)CC1 (stereo not drawn),-1.2%,-14.4%
S=c1[nH]nc(C2CC2c2ccc(Cl)cc2)n1-c1ccc(Cl)cc1 (stereo not drawn),u,-26.7%
Cc1nn(CC(=O)Nc2nc3ccccc3s2)c(C)c1[N+](=O)[O-],0.0%,i
COC(C[C@@H](O)[C@H](C)[C@@H](O)COCc1ccccc1)OC,-4.7%,i
COc1ccc(N(CC(=O)NCc2cccs2)S(=O)(=O)c2ccc(C(C)=O)cc2)cc1,-15.4%,-12.6%
c1ccc(SCc2nc3ccccc3s2)nc1,-0.4%,-3.8%
O=C(NCc1ccccc1C(F)(F)F)C1CC(c2ccccc2[N+](=O)[O-])=NO1 (stereo not drawn),-12.8%,-21.5%
CCOc1cccc(C(=O)NC2=NCCS2)c1,-2.4%,i
CCC(=O)Nc1ccc(C(=O)NNC(=O)c2ccc(Cl)cc2)cc1,-13.5%,-11.9%
Cc1cccnc1Nc1nc(-c2ccccn2)cs1,3.16µM*,2.51µM*
CCOC(=O)CSC1=Nc2ccccc2C2=NC(CCC(=O)NCc3ccc(F)cc3)C(=O)N12 (stereo not drawn),9.1%,-8.9%
CCc1ccccc1NC(=O)Cn1c(=O)n(-c2ccc(C)c(C)c2)c(=O)c2oc3ccccc3c21,-15.5%,-22.0%

# Quoted from the listing.
# COC(C[C@@H](O)[C@H](C)[C@@H](O)COCc1ccccc1)OC – VACV Venus inh = -4.7%
# CCc1ccccc1NC(=O)Cn1nc2c3cc(F)ccc3n(Cc3cccc(C)c3)cc-2c1=O – VACV mCherry inh = -2.1%
# CCC(=O)Nc1ccc(C(=O)NNC(=O)c2ccc(Cl)cc2)cc1 – VACV Venus inh = -13.5%

# Remaining list, next part:
SMILES,VACV Venus inh,VACV mCherry inh
Cc1ccc(S(=O)(=O)NC(CC(C)C)C(=O)Nc2nccs2)cc1 (stereo not drawn),-16.6%,x
CCOC(=O)C1=C[C@@H](C(C)C)N(S(=O)(=O)c2ccc(C)cc2)[C@H]1c1ccccc1F,-10.8%,i
CCOc1ccc2c(c1)c(=O)c(S(=O)(=O)c1ccc(C)cc1)cn2CC(=O)Nc1ccc(C)cc1,-6.2%,-4.9%
CSc1cccc(N2CC(C(=O)N(Cc3nnc(-c4ccccc4Cl)o3)C3CC3)CC2=O)c1 (stereo not drawn),-28.8%,-25.8%
COc1ccnc(Oc2ccc(F)cc2)c1C(=O)N/C=N/OCc1ccccc1,-6.5%,-14.9%
CCN1CCN(C(=O)CN2C(=O)c3ccccc3S2(=O)=O)CC1,-10.3%,-13.2%
CCN(CC)CCCN=C1N[C@@H](c2ccccc2)C(C(=O)OC)=C(C)N1CC,-2.2%,-13.2%
COCCNC(=O)c1cc2cc(Br)cc(Br)c2oc1=O,-7.0%,-4.5%
Cc1ccc(S(=O)(=O)N2[C@@H](c3ccc(Cl)cc3)C(C(=O)O)=C[C@H]2CC2CCCC2)cc1,-17.4%,i
COc1cc(CC(=O)N2CCC(n3nccc3NC(=O)C3CC3)CC2)cc(OC)c1OC,-7.3%,i
COC(=O)c1[nH]c2cccc(OC)c2c1NC(=O)CCN1CCSCC1,4.3%,-4.0%
O=C(C/C=N\OCc1ccc([N+](=O)[O-])cc1)Nc1ccc(F)cc1F,-5.4%,-4.8%
COCCn1c(C)cc(O)c(C(c2ccccc2F)N2CCN(c3ccccc3)CC2)c1=O (stereo not drawn),-3.6%,-15.1%
O=C(CCc1ccccc1)Nc1nn[nH]n1,0.5%,-3.5%
CC(C)NCC(O)c1ccc(O)c(O)c1 (stereo not drawn),1.1%&-4.4%,-8.8%
CCCCN(C)c1c(C)nc2ccc(C(=O)NCc3ccc(OC)cc3)cn12,-10.4%,i
N#Cc1nc(-c2ccc(COc3ccccc3)o2)oc1N1CCN(c2ccccc2)CC1,4.2%,-1.2%
O=C(NCCc1ccccc1)c1nccc2ccccc12,-14.9%,i
COc1ccc(Nc2ncnc3nc[nH]c23)cc1OC,-12.1%,-6.5%
O=C1CC(c2ccccc2)CC(=O)C1CS(=O)(=O)c1ccccc1 (stereo not drawn),3.2%,-19.0%
COc1cccc(CNc2ccc(S(N)(=O)=O)cc2)c1OC,-18.1%,-18.6%
COc1ccc(C2NCCc3c2[nH]c2ccccc32)cc1CN1CCc2cc(OC)c(OC)cc2C1C (stereo not drawn),-11.7%,u
COc1ccccc1Nc1nc(NCCCN(C)C)nc(N)c1[N+](=O)[O-],-15.2%[7.34 µM],-16.8%[7.34 µM]
Nc1ccc2c(C(F)(F)F)cc(C(F)(F)F)nc2n1,-13.0%,-6.8%
Cc1ccc(/C=N/NC(=O)COc2ccccc2-c2ccccc2)cc1,u,u
COc1cccc(C2(CC(=O)N3CCC(c4nc5ccc(F)cc5[nH]4)CC3)CC(=O)N(C)C2=O)c1 (stereo not drawn),-1.8%,-3.3%
O=S(=O)(c1ccc(-c2ccccn2)s1)N1CCC2(CC1)OCCO2,-16.7%,i
CCNc1nc(SC(C)C(=O)Nc2ccccc2)nc(N2CCOCC2)n1 (stereo not drawn),-1.3%,-15.0%
N#Cc1c(NC(=O)c2ccc(-c3ccccc3[N+](=O)[O-])o2)sc2c1CCCC2,-16.8%,-25.2%
CCOc1ccc2nc(N3CCCC(C(=O)Nc4cccc(Cl)c4C)C3)sc2c1 (stereo not drawn),-4.1%,-8.2%
Cc1ccc(S(=O)(=O)N2C[C@@H]3[C@H]4CC[C@H](C4)[C@@H]3[C@@H](C)[C@@H]2C2CCCCC2=O)cc1 (stereo partly drawn),u,-8.2%
CCCN(C(=O)c1cc(CC)c(C)s1)c1c(N)n(Cc2ccccc2)c(=O)[nH]c1=O,-6.7%,-14.9%
O=C(Cn1cnc([N+](=O)[O-])n1)c1ccc(O)c(O)c1,-11.7%,u
O=C(Nc1ccc(S(=O)(=O)N2CCOCC2)cc1)C1COc2ccccc2O1 (stereo not drawn),-0.3%,-1.1%
CCc1ccc(OCC(=O)NNC(=O)CSc2nnc(-c3ccc(C)cc3)n2C)cc1,-10.8%,i
CC(C)C[C@H]1CN([C@@H](Cc2ccccc2)CN2CCC[C@@H]2CN2C(=O)C(=O)NC[C@@H]2Cc2ccc(O)cc2)C(=O)C(=O)N1CC1CCCCCC1,-11.8%,i
C/C(=N\NC(=O)c1ccc(Cl)c(Cl)c1)c1ccccn1,u,1.26µM*
NC(=O)c1ccccc1NC(=O)c1ccccc1Cl,-0.6%,-1.0%
CCOC(=O)COc1ccc(C(=O)Nc2cccc(Cl)c2C)cc1,5.1%,7.9%
CS(=O)(=O)N(CC(=O)Nc1ccc(S(=O)(=O)N2CCCC2)cc1)c1ccccc1,-15.2%,i
CC(C)(C)c1nc(SCC(=O)Nc2ccc3c(c2)OCCO3)c2ccccc2n1,-3.8%,-9.0%
COC(=O)C(NC(=O)c1ccccc1C(=O)O)c1ccc2ccccc2c1 (stereo not drawn),-15.2%,i
CN(C)S(=O)(=O)c1cccc(C(=O)NCC(=O)NC2CCN(Cc3ccccc3)CC2)c1,9.0%,i
Cc1cc2[nH]ncc2cc1NC(N)=S,-11.3%,-18.5%
COc1ccc(NC(=O)c2cc(-c3ccc(C)o3)nc3ccccc23)cc1OC,u,x

# Next part; it opens with the 2 that closed the last part.
SMILES,VACV Venus inh,VACV mCherry inh
Cc1cc2[nH]ncc2cc1NC(N)=S,-11.3%,-18.5%
COc1ccc(NC(=O)c2cc(-c3ccc(C)o3)nc3ccccc23)cc1OC,u,x
Cc1cc(NC(=O)CSc2nnc(-c3ccncc3)n2C)n(-c2ccccc2)n1,-6.3%,-12.7%
O=C(Cc1ccc(Cl)cc1)Nc1cccc(C(=O)Nc2ccccc2C(=O)O)c1,-26.0%,-13.0%
Cc1cc(N)ccc1N1CCCC1,-3.7%,-8.4%
CCCNC(=O)NC(=O)CSc1nnc(-c2ccncc2)n1CC,-2.8%,i
Cc1ccc2nc(-c3cccnc3)cc(C(=O)Nc3ccc(F)cc3C)c2c1,1.9%,-8.0%
O=C(NCCSc1ccccc1)c1ccc(Br)cc1,-13.5%,-13.3%
COc1cccc(NCc2cc(=O)oc3cc(-c4ccccc4)c(O)cc23)c1,-24.8%,u
O=C(C(=O)N1CCCC1)c1c[nH]c2ccccc12,-0.9%,i
CCc1ccccc1NC(=S)N1CCNC(=O)C1CC(=O)OC (stereo not drawn),-2.4%,-0.2%
CC1=C(C(=O)N(C)C)CC(CC(=O)NC2CCCC2)C(=O)N1CCCN1CCCC1=O (stereo not drawn),-10.1%,i
CC(=O)N1CCc2cc(NC(=O)C3(C)CCN3Cc3ccccc3Cl)ccc21 (stereo not drawn),39.2%[activator],u
Cc1cc(C)cc(NC(=S)NCc2ccc(F)cc2)c1,-1.8%,-13.7%
Cc1ccc(-n2cc(CN3CCN(Cc4nccn4C)CC3)c(-c3cccc(C)c3)n2)cc1,-25.6%,-4.3%
CCN(CC(=O)NC(=O)NCc1ccccc1)Cc1nc2ccccc2c(=O)[nH]1,-11.2%,-8.6%
Cc1ccc(SCC(=O)OCC(=O)NCCNC(=O)COC(=O)CSc2ccc(C)c(C)c2)cc1C,-11.7%,-16.1%

# High-throughput results deposited in PubChem by National Center for Advancing Translational Sciences (NCATS).
